Source: PubChem BioAssay
Vaccinia Venus: qHTS for Stage-Specific Inhibitors of Vaccinia Orthopoxvirus: Venus Reporter Primary qHTS; Vaccinia virus Venus reporter expression, fluorescence; Potency, µM (doses to about 36.5 µM), for the others: at the highest dose activity change, negative = inhibition, usual class: inhibitors; 330,000 compounds, 0.46% hits; AID 720580, 2013; active means well fitted inhibition curve with a large enough effect; inconclusive means small, poorly fitted or top-dose-only effect; inactive means no such curve, though single readings can be large or run the other way; tested in A549 cells; note: nearly all actives have a fitted effect of over 30% in size; inactives centre near -10
Vaccinia mCherry: qHTS for Stage-Specific Inhibitors of Vaccinia Orthopoxvirus: mCherry Reporter Primary qHTS; Vaccinia virus mCherry reporter infection, fluorescence; about a quarter of the inactives have no number; Potency, µM (titrated, usually from 36.5 µM), inactives show at the top dose activity change, negative = inhibition, actives largely listed as inhibitors; 310,000 compounds, 0.63% hits; active = well fitted inhibition curve with a large enough effect; inconclusive = small, poorly fitted or top-dose-only effect; inactive = no such curve, though single readings can be large or run the other way; tested in A549 cells; note: nearly all actives have a fitted effect of over 35% in size; inactives centre near -10
Active calls of the source: *; i = inactive; ? = inconclusive; . = no result given; & = joins results of further samples; [ ] = remark or other dose. % is set by controls: 0 for no effect and ±100 for the full control effect; potency is the fitted concentration of half-maximal effect.

Values run as follows: Vaccinia Venus	Vaccinia mCherry
O=C(/C=C/c1cccc([N+](=O)[O-])c1)OCC(=O)N1CCCCC1
 : -28%	-21%
COc1cccc(-c2ccnc3[nH]n(-c4ccccc4)c(=O)c23)c1
 : -1%	4%
CCN(CC)S(=O)(=O)c1cccc(-c2cn3cccnc3n2)c1
 : -5%	-6%
Cn1c(=O)c2c(SCC(=O)NCc3ccco3)nc(CC(C)(C)C)nc2n(C)c1=O
 : -21%	i
O=C(CCC(=O)N1CCOc2ccccc21)NCCCN1CCCCC1
 : -5%	i
CNC(=O)c1sc(NCc2ccccc2OC)nc1C
 : 3%	5%
COC(=O)c1nnn(-c2ccc(Cl)cc2)c1C(=O)OC
 : 4%	-10%
COc1cc(=O)n2c(-c3ccccc3)csc2n1
 : -26%	-8%
CCOC(=O)N1CCC(=NNC(=O)COc2ccc(OC)cc2)CC1
 : -15%	i
CCN(CC)c1ccc(S(=O)(=O)N(CC)CC)cc1NC(=O)c1cccnc1
 : -2%	0%
N#CCCN1CCN(C(=S)c2ccc(-c3cccc(Cl)c3)o2)CC1
 : -20%	-30%
O=c1c2cccnc2n(Cc2ccc(Cl)cc2)c(=O)n1Cc1ccc(F)cc1
 : 2%	-15%
Cc1cc2c(cc1C)NC(c1c(C)n(C)n(-c3ccccc3)c1=O)C1=C(CC(C)(C)CC1=O)N2 (centres undefined)
 : -21%	-11%
CC1(C)Oc2ccc(NC(=O)c3ccco3)cc2O1
 : -14%	.
CCc1ccccc1N(CC(=O)NCCSCc1ccco1)S(C)(=O)=O
 : -18%	-3%

For convenience, some entries already given:
Values run as follows: Vaccinia Venus	Vaccinia mCherry
Cc1cc2c(cc1C)NC(c1c(C)n(C)n(-c3ccccc3)c1=O)C1=C(CC(C)(C)CC1=O)N2 (centres undefined)
 : -21%	-11%
CC1(C)Oc2ccc(NC(=O)c3ccco3)cc2O1
 : -14%	.
CCc1ccccc1N(CC(=O)NCCSCc1ccco1)S(C)(=O)=O
 : -18%	-3%

(more compounds)
Values run as follows: Vaccinia Venus	Vaccinia mCherry
O=C(OCn1nnc2ccccc2c1=O)C1CCCCC1
 : -14%	.
Cc1cc(OC(C)C(=O)NCCCN2CCOCC2)ccc1Cl (centres undefined)
 : -7%	i
CCCNC(=O)NC(=O)COC(=O)c1cccc(NS(=O)(=O)c2ccc(F)c(F)c2)c1
 : -15%	i
Cc1ccccc1S(=O)(=O)N1C[C@H]2CON(C)[C@H]2C[C@H]1c1cccc(Oc2ccccc2)c1
 : -1%	?
COc1ccc(C2=C(C(C)=O)Sc3nnc(-c4ccc(Cl)cc4)n3N2C(C)=O)cc1OC
 : ?	?
CCN(c1ccccc1)c1nnc(NC(=O)Nc2ccccc2F)s1
 : -22%	-18%
N#Cc1cccc2cnccc12
 : -2%	-9%
Cc1ccc(Oc2ccc(C(=O)NCc3ccncc3)cc2)cc1
 : -7%	-28%
Cc1ccc(NCc2nnc(SCC(=O)O)n2-c2ccc(C)cc2)cc1
 : -19%	i
COc1ccccc1-c1cc(C(F)(F)F)n2ncc(C(=O)N3CCc4ccccc4C3)c2n1
 : ?	?
COc1ccc(NC(=O)C(=O)N/N=C\c2ccc(CNC(=O)C(=O)Nc3ccc(C)c(C)c3)o2)c(OC)c1
 : -9%	i
Cc1ccc(OCC(=O)OCCN2C(=O)c3ccccc3C2=O)cc1C
 : -2%	-11%
CCNc1nc(NCC)n2c(SCC(=O)Nc3ccc(OC(F)F)cc3)nnc2n1
 : -16%	-8%
CC(C)(C)CNC(=O)c1ccc2c(c1)S(=O)(=O)c1cc(Cl)ccc1C2=O
 : -10%	i
Oc1cccc2cccnc12
 : -12%	-15%
CCCCNC(=O)C(NC(=O)c1ccc(=O)[nH]c1)C(=O)c1ccccc1 (centres undefined)
 : 3%	8%
COC(=O)c1ccc(Cn2c(SCc3cccc(C)c3)nc3ccncc32)cc1
 : -3%	1%
CC(C)OC(=O)c1ccc(COc2ccc3ccc(=O)oc3c2)o1
 : -4%	-8%
COc1cc(C(=O)Nc2ccc(C)cc2)c2ccccc2n1
 : -28%	-16%
CCOC(=O)N1CCN(C(=O)c2cnn3c(C(F)F)cc(-c4ccc(C)cc4)nc23)CC1
 : ?	.
CCN(CC)C(=O)CSc1nnc(COc2ccccc2)n1CC
 : -12%	.
COC(=O)C1CCN(C(c2ccccc2)c2sc3nc(-c4ccco4)nn3c2O)CC1 (centres undefined)
 : -8%	-12%
Cc1cccc(Oc2sc(C(=O)c3ccccc3)c(N)c2C#N)c1
 : ?	.
O=S1(=O)C=C(Sc2nc3ccccc3s2)c2ccccc21
 : ?	14µM*
Cn1c(-c2ccc([N+](=O)[O-])cc2)nc2ccccc21
 : -16%	-3%
CC(C)CCn1c(Br)nc2c1c(=O)n(CC(N)=O)c(=O)n2C
 : 1%	-14%
CN(C(=O)c1ccc2c(c1)CCO2)C(C)(C)C
 : 7%	i
Cc1ccc2nc(Cn3cc(C(F)(F)F)ccc3=O)cc(=O)n2c1
 : -15%	i
CN1Cc2ccccc2N(CC(=O)NCc2ccccc2)C1=O
 : -9%	-5%
Cn1cnnc1SCNC(=O)C(F)(F)F
 : -13%	i
O=CN1Cc2ccccc2-c2ccccc2C1
 : -18%	-3%
CC(C)(C)c1ccc(C(=O)N2CCC(c3noc(-c4ccc(S(=O)(=O)N5CCCC5)cc4)n3)CC2)cc1
 : ?	?
COc1ccc(N2CCN(C(=O)c3ccc(CSc4ccccc4)cc3)CC2)cc1
 : -3%	-6%
Cc1ccc(S(=O)(=O)N2[C@@H](c3ccc(F)cc3)C(C(=O)O)=CC[C@H]2c2cccc(C)c2)cc1
 : -15%	-2%
N#CC1=C(N)Oc2c(c(=O)sc3ccccc23)C1c1cccnc1 (centres undefined)
 : -7%	-17%
C=CCn1c(C(C)NC(=O)c2cccs2)n[nH]c1=S (centres undefined)
 : -14%	i
COCOCCn1cc(CN2CCS(=O)(=O)N(Cc3ccc(-c4ccc(C)cc4)cc3)C(C(C)C)C2=O)nn1 (centres undefined)
 : -14%	i
CCOc1ccccc1N(CC(=O)NCc1ccco1)C(=O)CCC(=O)Nc1nccs1
 : -4%	i
CC1(C)CC(=O)C(=Cc2cn(-c3ccccc3)nc2-c2ccc(Cl)cc2)C(=O)C1
 : -5%	.
NC(=O)c1ccc(NS(=O)(=O)c2ccc3ccccc3c2)cc1
 : 2%	i
COc1ccc(Cl)cc1NC(=O)CSc1nc(=O)[nH]c2c1CCC2
 : -15%	-24%
CC(=O)c1ccc(OCCCC(=O)n2nnc3ccccc32)cc1
 : 1%	-6%
CN1CCN(C(=O)CNC(=O)c2cccs2)CC1
 : 1%	-7%
COc1cc2c(-c3ccccc3Cl)nc3c(c(C)nn3-c3ccccc3)c2cc1OC
 : -9%	-25%
CCOC(=O)c1[nH]c2ccc(OCC)cc2c1CCCN1C(=O)c2ccccc2C1=O
 : -29%	?
Cc1cc2ccccc2c[n+]1CC(=O)c1ccc(F)cc1
 : 0%	-12%
Cc1ccc(NC(=O)c2c(C)oc3ccc(O)c(CN4CCCCC4)c23)cc1
 : -4%	-11%
NC(=O)C1(N2CCCCC2)CCN(Cc2nc3ccccc3c(=O)[nH]2)CC1
 : 4%	i
COc1cc(-c2nnc(-c3cc(OC)c(OC)c(OC)c3)o2)cc(OC)c1OC
 : -15%	.
CC1Cc2ccccc2N1S(=O)(=O)c1cccc2nsnc12 (centres undefined)
 : -10%	-18%
CC(CCc1ccccc1)NC(=O)CSc1n[nH]c(-c2ccccc2)n1 (centres undefined)
 : -16%	-10%
COc1ccc(C(C(=O)NC2CCCCC2)N(C(=O)Cc2c[nH]c3ccccc23)c2ccccc2C)cc1OC (centres undefined)
 : ?	-30%
CCCCC[C@@H](/C=C/C1C(=O)C=C[C@H]1C/C=C\CCCC(=O)OC)OC(C)=O (some centres undefined)
 : ?	?
CC1CCCCC1NC(=O)CNC(=O)c1cccs1 (centres undefined)
 : 4%	-17%
Cc1ccccc1NS(=O)(=O)c1ccc(C(=O)NCC(c2ccco2)N2CCCCC2)cc1 (centres undefined)
 : -24%	?
COc1ccc(-c2cc(C(=O)Nc3c(C(=O)c4ccc(Cl)cc4)oc4ccccc34)no2)cc1
 : -7%	-12%
CCNC(=O)C1(C)CCCN(Cc2ccc(-n3ccnc3)cc2)C1 (centres undefined)
 : -8%	33%[activator]
Cc1[nH]c2c(Br)cccc2c1[C@H]1[C@@H](CC#N)C1(C)C
 : -23%	-10%
COc1ccc(S(=O)(=O)N2CCCCC2)cc1NC(=O)c1c(F)cccc1Cl
 : -11%	-16%
Cc1ccnc(NS(=O)(=O)c2ccc(NC(=O)C(C)(C)Oc3ccc(Cl)cc3)cc2)n1
 : 11%	-12%

The results go on:
Values run as follows: Vaccinia Venus	Vaccinia mCherry
COc1ccccc1CNc1ccc(-c2nc(-c3ccncc3)no2)cc1[N+](=O)[O-]
 : -16%	-25%
CCOc1ccc(N(CC)S(=O)(=O)N2CCCC(C(=O)Nc3cc(Cl)ccc3C)C2)cc1 (centres undefined)
 : -24%	-14%
CSc1ncnc2c1ncn2CCCNCCCN1CCCC1=O
 : -7%	i
COc1cc(/C=N/n2c(-c3n[nH]c4c3CCC4)n[nH]c2=S)cc(OC)c1O
 : 8%	-6%
Cc1cc(NS(=O)(=O)c2ccc(NC(=O)/C=C/c3ccc(Br)cc3)cc2)no1
 : -11%	i
COc1ccc(N(CC(=O)Nc2cccc(Cl)c2C)S(=O)(=O)c2c(C)nn(C)c2C)cc1
 : 1%	-3%
COc1ccc(S(=O)(=O)Nc2nccs2)cc1OC
 : 4%	i
Cc1cc2nc(N3CCC(NC(C)c4nc(-c5ccccn5)no4)CC3)nc(C)c2cc1C (centres undefined)
 : -13%	-17%
O=C(/C=C/NNC(=O)c1ccc(Cl)cc1)c1ccccc1
 : -20%	-7%
C=CCNC(=O)c1ccccc1NS(=O)(=O)c1ccc(OC)c(C(=O)N2CCOCC2)c1
 : -10%	-15%
CCOC(=O)c1cccc(NC(=O)Cn2nc3c(cc2=O)CCCC3)c1
 : -7%	-16%
O=C(O)CSCc1nc2cccnc2n1C1CCCCC1
 : -8%	-5%
Cc1nc(NC(=O)CSc2cc(C)c3ccccc3n2)c(Cl)cc1Cl
 : -9%	i
C=C[C@](C)(O)CCC1C(=C)CCC2[C@@](C)(CO)CCC[C@@]12C (some centres undefined)
 : -14%	-12%
CCCCn1c(N)c(N(CCC(C)C)C(=O)COC(=O)c2ccc(CC)cc2)c(=O)[nH]c1=O
 : 0%	6%

Complete entries, looked up by structure. Values in the order: Vaccinia Venus	Vaccinia mCherry
Shown for CSc1ncnc2c1ncn2CCCNCCCN1CCCC1=O = -7%	i
Shown for C=C[C@](C)(O)CCC1C(=C)CCC2[C@@](C)(CO)CCC[C@@]12C (some centres undefined) = -14%	-12%

Additional results follow:
Values run as follows: Vaccinia Venus	Vaccinia mCherry
CCOC(=O)C1CCN(S(=O)(=O)CCNC(=O)c2ccccc2)CC1
 : 3%	-24%
O=c1[nH]c2cc(Cl)c(Cl)cc2[nH]c1=O
 : -11%&-15%	-15%
COc1cccc(C(=O)N2CCC(C(=O)Nc3cccc(Cl)c3)CC2)c1
 : 1%	-8%
CCOC(=O)N(C)c1c(CC)nc2c(OCc3cc(Cl)cc(Cl)c3)cccn12
 : -11%	13%
CCC(Oc1ccccc1)C(=O)Nc1ccc(S(=O)(=O)Nc2cc(C)on2)cc1 (centres undefined)
 : -1%	-8%
OC(CCN1CCC2CCC(C2)C1)c1ccc(Br)cc1 (centres undefined)
 : -9%	-8%
Cc1nc2nc(-c3cccs3)[nH]c2cc1Br
 : -13%	-14%
COC(=O)CCNc1ccc2c(c1)OCCO2
 : -6%	-21%[1.46 µM]
COc1ccc(S(=O)(=O)N2CCN(C)CC2)cc1C(=O)Nc1ccccc1
 : -11%	i
COC(=O)CCCCCCCCC(O)CN1CCCCC1 (centres undefined)
 : 1%	-13%
Fc1cccc(-c2ccc3c(c2)CN(C(=S)NCCc2ccccc2)Cc2cnnn2-3)c1
 : -7%	i
O=C(CC12CC3CC(CC(Br)(C3)C1)C2)Nc1cccc(S(=O)(=O)NC2=NCCC2)c1
 : -6%	-3%
NNC(=O)c1ccc(Cn2cc(Br)c(N)n2)cc1
 : -19%	-18%
COC(=O)C1=C(c2ccc(F)cc2F)C[C@@H]2CC[C@H]1N2C(=O)NCCCOC(C)C
 : -10%	i
CCS(=O)(=O)N1CCc2cc(C(=O)N3CCN(c4cccc(C(F)(F)F)c4)CC3)ccc21
 : -21%	-23%
COc1cc(COC(=O)c2cnc(C)cn2)c(OC)cc1Br
 : 5%	15%
Cc1nnc(C)n1/N=C/c1cc(Br)cc(Br)c1O
 : -13%	-9%
Cn1ccsc1=NC(=O)c1ccc(Cl)cc1
 : -11%	-5%
COC(=O)[C@@]1(Cc2ccc(F)cc2)[C@H]2c3cc(C(=O)N4CCCC4)n(CCCNc4ncc(C(F)(F)F)cc4Cl)c3C[C@H]2CN1C(=O)c1ccccc1
 : ?	-23%
O=C(NCC(c1ccco1)N1CCN(c2ccccc2F)CC1)c1ccc2c(c1)OCO2 (centres undefined)
 : -20%	-8%
O=S(=O)(c1ccc(Br)s1)N1CCN(Cc2ccc3c(c2)OCO3)CC1
 : -12%	-2%[1.46 µM]
COc1ccc(OC)c2sc(NC(=O)C(C)C)nc12
 : 0%	-27%
Cc1ccc(C2=NOC(=O)/C2=C\c2ccc(C)o2)cc1
 : -9%[7.34 µM]	i[7.34 µM]

Outcome played no part in choosing rows; 0.82% or so of the library scored in one or more.
